CBX7 AlphaScr = CBX7 chromodomain binding inhibitors, primary screen, biochemical, AlphaScreen; Chromobox protein homolog 7 (Homo sapiens), O95931; AlphaScreen His6-CBX7 / biotin-H3K27me3 peptide binding; hits give low values; normalised signal (fraction of DMSO) (concentration not given with the values); 66,000 compounds, 1.1% hits; in the data active means normalised signal below about 0.5;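 further: 100 nL library stock added to about 20 µL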
Target sequence (O95931 whole entry, looked up): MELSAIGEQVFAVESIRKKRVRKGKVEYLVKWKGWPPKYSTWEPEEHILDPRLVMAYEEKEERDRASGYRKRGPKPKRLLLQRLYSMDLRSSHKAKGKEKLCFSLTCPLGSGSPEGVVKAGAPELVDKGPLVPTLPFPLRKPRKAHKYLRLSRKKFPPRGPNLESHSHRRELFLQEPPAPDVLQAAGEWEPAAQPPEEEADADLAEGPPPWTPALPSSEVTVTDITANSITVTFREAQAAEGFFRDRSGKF
CBX7 AlphaScr z-score = further read-out of CBX7 AlphaScr, marked with its call; z-score; measured here: z-score of CBX7 signal; some inactives read as strong as hits; reference of the scale not given here;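 same signal on another scale; lower means less binding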
* hit, by the source's call; & = joins results of further samples. An excerpt. The share of hits here may be higher or lower than overall.

SMILES	CBX7 AlphaScr	CBX7 AlphaScr z-score
CCC1CCCCN1C(=O)c1cc(-c2ccc(Cl)c(Cl)c2)on1 (configuration not stated)	1	0.042
Cc1ccc2c3c([nH]c2c1)CCN(C)C3	1	-0.12
Cc1ccc(Nc2c(-c3ccc(C)cc3)nc3ccc(Cl)cn23)cc1	1.2	2
Cc1sc2ncnc(SCC(=O)N3CCOCC3)c2c1C	1	0.0058
COc1cccc(NC(=O)Cn2cc(S(=O)(=O)c3ccc(Cl)cc3)c(=O)c3cc(C)ccc32)c1	0.96	-1.5
CCc1ccccc1NS(=O)(=O)c1ccc2[nH]cc(C(=O)NC3CCCC3)c(=O)c2c1	1	0.48
COc1ccc(-c2nc3ccccc3n2CCC(C)C)cc1OC	0.99	-0.65
CCN1CCN(C(c2ccc(OC)c(OC)c2)c2sc3nc(C)nn3c2O)CC1 (configuration not stated)	0.99	-0.59
CC1CCN(S(=O)(=O)c2ccc3[nH]c(=O)cc(C(=O)NCCN4CCCCC4C)c3c2)CC1 (configuration not stated)	0.99	-0.13
CCN(CCN(C)C)C(=O)Cn1nc(Cc2ccncc2)c2ccccc2c1=O	1.2	2.2
CCC(C)(NCCc1c(C)[nH]c2ccccc12)c1nnnn1-c1c(C)cccc1C (configuration not stated)	0.8	-3.6
O=C(CCc1nc2ccccc2n(Cc2c(F)cccc2Cl)c1=O)NC1CC1	0.99	-0.12
COc1ccc(CCNC(=O)c2cc3c(-c4ccc(OC)c(OC)c4)nn(C)c3s2)cc1OC	0.97	-1.1
CC1=NN(c2cc(C)c3ccccc3n2)C2(O)CC3C(C12)C3(C)C (configuration not stated)	0.9	-0.4
CCOC(=O)c1c(C)n(-c2ccc(OC)cc2)c2ccc(OC)cc12	1.1	2.8
O=C(NCc1ccccc1)c1cc(-c2cccs2)on1	0.93	-0.065
COC(=O)c1ccc2c(c1)N(Cc1cc(C)ccc1C)C(=O)c1ccccc1S2	1	1.7
Cc1ccc(NC(=O)C2CC(O)CN2C(=O)Oc2ccccc2)cc1C (configuration not stated)	1.1	0.86
O=C1CCc2cc(S(=O)(=O)NC(Cc3ccccc3)C(=O)NC3CCCCCC3)ccc2N1 (configuration not stated)	1	-0.0033
O=C1Nc2ccccc2OC1CC(=O)N1CCN(Cc2ccc3c(c2)OCO3)CC1 (configuration not stated)	0.95	-0.27
COCCCNC(=O)c1cc(-c2ccc(OC)cc2)nc2ccc(C(C)C)cc12	0.75	-0.28
Cc1ccc(C)c(Nc2nc(-c3ccncc3)nc3ccccc23)c1	1	-0.13
Cc1ccc2oc(-c3ccc(Cl)c(NC(=O)c4ccccc4)c3)nc2c1	0.92	-0.82
CCOc1ccc(-c2nc(SCC(=O)Nc3ccc4c(c3)OCCO4)c(-c3ccc(OC)c(OC)c3)[nH]2)cc1	0.97	-0.14
O=C(NCCc1c[nH]c2ccccc12)c1ccc2c(c1)NC(=O)c1ccccc1N2	0.6	-3.2
Cc1onc(-c2c(F)cccc2Cl)c1C(=O)NCc1ccncc1	1.1	1.8
Cc1cc(NC(=O)c2ccc3c(c2)C(=O)N(Cc2ccccc2)C3=O)no1	1	0.17
CCOC(=O)CNC(=O)Cn1cnc2c(nnn2Cc2ccc(F)cc2)c1=O	0.83	-2.8
Cc1[nH]nc2c1C(c1ccccc1)N(c1nccs1)C2=O (configuration not stated)	0.87	-1.5
CCOc1ccc(Sc2cc(C(=O)NCCCOC)c3ccccc3n2)cc1	1.1	3.5

Four compounds picked at random from the list so far, as already listed:
SMILES	CBX7 AlphaScr	CBX7 AlphaScr z-score
O=C(NCc1ccccc1)c1cc(-c2cccs2)on1	0.93	-0.065
Cc1onc(-c2c(F)cccc2Cl)c1C(=O)NCc1ccncc1	1.1	1.8
Cc1ccc(NC(=O)C2CC(O)CN2C(=O)Oc2ccccc2)cc1C (configuration not stated)	1.1	0.86
CCOc1ccc(Sc2cc(C(=O)NCCCOC)c3ccccc3n2)cc1	1.1	3.5

(more compounds)
SMILES	CBX7 AlphaScr	CBX7 AlphaScr z-score
CCCCCn1c(=O)[nH]c2cc(C(=O)N3CCN(c4ccc(F)cc4)CC3)ccc2c1=O	0.96	-0.84
O=C(CSc1nnc(COc2ccccc2)o1)NCCc1ccccc1	1.2	2.4
Cc1oc(-c2cccs2)nc1CN1CCCC(C(=O)NCCCN2CCOCC2)C1 (configuration not stated)	0.99	-0.25
Cc1ccc(CNC(=O)CN2CCOc3ccccc32)cc1	1.1	1.2
Cc1cccn2cc(-c3cccc(NC(=O)C(C)C)c3)nc12	0.97	-0.62
CC(C)c1ccc(OCC(=O)N(Cc2nc(-c3ccc(Cl)cc3)no2)C(C)C)cc1	0.99	-0.082
CCOC(=O)c1cnn(-c2ccccc2)c1C1CCN(C(=O)OC(C)(C)C)CC1	1	0.42
Cc1ccc(OCCSc2nc3ccccc3n2CC(O)CO)cc1 (configuration not stated)	0.92	-1.5
CCCCN(C)CCCNC(=O)CN1C(=O)COc2ccc(S(=O)(=O)N3CCOCC3)cc21	1	0.21
COc1ccc(-n2cc(-c3ccc(Br)cc3)[nH]c2=O)cc1	1	1.3

Full records as entered above. Order of screens: CBX7 AlphaScr	CBX7 AlphaScr z-score
Listed for Cc1ccc(OCCSc2nc3ccccc3n2CC(O)CO)cc1 (configuration not stated) → 0.92	-1.5
Listed for CCCCCn1c(=O)[nH]c2cc(C(=O)N3CCN(c4ccc(F)cc4)CC3)ccc2c1=O → 0.96	-0.84

Next part
SMILES	CBX7 AlphaScr	CBX7 AlphaScr z-score
COc1ccc(CNC(=O)CSc2nc3ccc(C)cc3[nH]2)cc1	1	0.17
Cc1cccc2nc(-c3c(F)cccc3Cl)c(Nc3ccc4c(c3)OCO4)n12	0.74	-4.2
COc1ccc(C2OCC3(CO)C(C)C=C(C)C2C3C)cc1 (configuration not stated)	1.1	0.14
O=C(NCCN=C1NS(=O)(=O)c2ccccc21)c1ccc(S(=O)(=O)N2CCOCC2)cc1	1	1.1
C#CCOc1cc(Br)c(/C=C/c2cc(C(F)(F)F)[nH]c(=O)n2)cc1OC	0.7	-8.2
O=C(NC1CCCCC1)C(c1ccc(Cl)cc1)N1CCCC1 (configuration not stated)	0.98	-0.47
CCCc1cc(-c2onc(C)c2-c2ccc3c(c2)OCCCO3)c(O)cc1OC	0.68	-0.55
O=C(CSCc1cnn(-c2ccccc2)c1-n1cccc1)NCc1ccccn1	0.99	-0.37
Cc1ccc(NC(=O)c2oc3ccc(S(=O)(=O)N4CCCCC4)cc3c2C)c(C)c1	1.1	3
CCc1ccc(CNC(=O)C2CCN(c3nc4ccccc4o3)CC2)cc1	0.92	-2.3
CC(=O)Nc1ccc(N2C(=O)CC(N3CCN(C)CC3)C2=O)cc1 (configuration not stated)	0.98	-0.31
Cc1ccc(NC(=O)CNC(=O)Cn2cnc3sc4c(c3c2=O)CCCC4)cc1F	0.95	-1.6
O=C(c1cc(-c2ccc(Cl)c(Cl)c2)on1)N1CCc2ccccc2C1	1.1	0.77
Cc1cc(Oc2ccccc2)nc(NCc2ccccc2)n1	0.99	-0.33
Cc1nn2c(C(F)(F)F)cc(-c3ccc(Cl)cc3)nc2c1-c1ccccc1	0.81	-2.4
Cc1cccc(OCCn2c(=N)n(Cc3ccccc3F)c3ccccc32)c1	0.86	-3.7
CCOC(=O)c1cc(-c2ccccc2)n(CCC(=O)NC(C)c2ccccc2)c1C (configuration not stated)	0.92	-1.4
CCc1ccc(-c2nc(CN3CCCC(C(=O)NCc4ccccc4)C3)c(C)o2)cc1 (configuration not stated)	0.98	-0.66
CC1CC(C)CN(C(=O)CC2Oc3ccccc3NC2=O)C1 (configuration not stated)	0.99	-0.2
C=CCNC(=O)c1oc2ccc(S(=O)(=O)N3CCCCC3)cc2c1C	0.8	-2.8

The closing 2 compounds of the section above open the next one.
SMILES	CBX7 AlphaScr	CBX7 AlphaScr z-score
CC1CC(C)CN(C(=O)CC2Oc3ccccc3NC2=O)C1 (configuration not stated)	0.99	-0.2
C=CCNC(=O)c1oc2ccc(S(=O)(=O)N3CCCCC3)cc2c1C	0.8	-2.8
Clc1ccc(-c2noc(-c3ccc4c(c3)OCO4)n2)cc1	1	1.8
Ic1ccc(Nc2nc3nonc3nc2N2CCCCCC2)cc1	1	-0.0045
Cc1ccc2nc(N3CCC(C(=O)O)CC3)[nH]c2c1	0.98	-0.021
CCCCC(CC)CNC(=O)c1c(-c2ccccc2)noc1C (configuration not stated)	1	0.33
CCOC(=O)c1cc(-c2ccccc2)n(-c2cccc(C(=O)N3CCc4ccccc43)c2)c1C	0.73	-4.9
O=C(CN1C(=O)CCSc2ccccc21)N1CCN(c2ncccn2)CC1	1	0.41
O=C(Nc1c(C(=O)c2ccc(Br)cc2)oc2ccccc12)c1ccc(F)cc1	1.1	0.36
CCN(CC)CCNC(=O)c1cc(-c2ccc(C)c(C)c2)nc2ccccc12	1.1	1.5
Cc1cccc(-c2nc(Nc3cccc(F)c3)c3ccccc3n2)c1	1.3	8.6
CCN1CCN(C(=O)CN2C(=O)CSc3ccc(S(=O)(=O)N(CC)CC)cc32)CC1	1	0.33

Arranged by the number under CBX7 AlphaScr z-score (ascending): 3 of the compounds above.
molecule,CBX7 AlphaScr z-score
CCOC(=O)c1cc(-c2ccccc2)n(-c2cccc(C(=O)N3CCc4ccccc43)c2)c1C,-4.9
Cc1ccc2nc(N3CCC(C(=O)O)CC3)[nH]c2c1,-0.021
CCN1CCN(C(=O)CN2C(=O)CSc3ccc(S(=O)(=O)N(CC)CC)cc32)CC1,0.33

Other records.
SMILES	CBX7 AlphaScr	CBX7 AlphaScr z-score
COc1ccc(Nc2ncc(F)c(N3CCOCC3)n2)cc1	0.88	-3.5
COc1ccc(Cl)cc1NC(=O)c1cn(C)c(=O)c2cc(OC)c(OC)cc12	1.1	2
CCOc1ccc(C(=O)Nc2cc(-c3nc4ccccc4o3)ccc2OC)cc1Cl	1.1	0.74
COc1ccccc1-c1cc(C(=O)NCC(C)C)no1	0.97	-0.037
Cn1nc(C(=O)Nc2cc(Cl)ccc2Cl)cc1C(=O)Nc1cc(Cl)ccc1Cl	0.99	-0.099
Cc1cc(C)c(S(=O)(=O)NCC23C=CC(O2)C2C(=O)N(c4ccc(Cl)cc4)C(=O)C23)c(C)c1 (configuration not stated)	1	0.21
O=C(O)CCC(=O)N1CCc2cc(S(=O)(=O)NCCc3ccc(Cl)cc3)ccc21	0.83	-2.8
CN1CCC(O)(C#CCOc2ccccc2Br)CC1	1	1.4
CC(=O)NC(=O)CSc1nc2ccccc2o1	1.1	0.58
COc1ccc(NC(=O)c2cc(-c3ccccc3OC)on2)c(OC)c1	1.4	2.9
CCOC(=O)c1cc(-c2ccccc2)n(CCC(=O)Nc2ccc(Cl)c(C(F)(F)F)c2)c1C	0.96	-1
COc1cccc(CNC(=O)c2nnc(Cc3ccc(Cl)cc3)o2)c1	1.1	2.8
COc1cccc(CNC(=O)c2cc3ccccn3n2)c1	1.3	2.2
CCN(CCCNC(=O)CN1C(=O)CSc2ccccc21)c1cccc(C)c1	0.87	-3.8
NC(=O)CSc1nc2ccccc2n1Cc1ccccc1Cl	0.96&0.95	-1.4&-1.3
Cc1onc(-c2ccccc2)c1C(=O)Nc1ccc(S(=O)(=O)NCCc2ccccc2)cc1	0.89	-1.3
CCCN1CCN(CCCNC(=O)c2ccc3nc(N4CCOCC4)sc3c2)CC1	1.2	1.5
Cc1cc(C)cc(NC(=O)c2cnc3sccn3c2=O)c1	0.87	-1.6
O=C(NCc1ccc(F)cc1)c1cc(-c2ccccc2)nc2ccccc12	1	0.079
Cc1nc2n(CC#N)c3ccccc3n2n1	1	1.2
CN(C(=O)c1cc2c(s1)-c1ccccc1OC2)c1ccccc1	0.95	-1.1
CC1CC(C)CN(C(=O)C(Cc2ccccc2)NS(=O)(=O)c2ccc3c(c2)CCC(=O)N3)C1 (configuration not stated)	0.97	-0.66
Fc1ccc(Nc2nc(Cc3ccccc3)nc3sc4c(c23)CCCC4)cc1	1	1.7
CCc1ccc(N(CC)C(=O)c2cn(C)c(=O)c3cc(OC)c(OC)cc23)cc1	1.2	1.6
COc1cc(OC)cc(-c2cc3nc(C)c(CCC(=O)NCc4ccc(Cl)cc4)c(C)n3n2)c1	1	0.71
COc1ccc(Cl)cc1NC(=O)c1c(NCc2cccc(OC)c2OC)sc2c1CCC2	0.99	-0.63
Clc1ccc2c(c1)C(c1ccccc1)=NNC(c1ccc(Br)cc1)=N2	1	0.03
CCc1nc2ccccc2n1CC(O)COc1cc(OC)ccc1C(=O)c1ccccc1 (configuration not stated)	0.94	-0.48
O=C(NCCCN1CCOCC1)C(=O)NCC(c1ccccc1)c1ccccc1	1	0.04
COc1ccc(-c2nnc(SCc3nnc(-c4ccccc4)o3)n2-c2ccccc2)cc1	0.85	-2.9
O=C(NCC1(c2ccccc2)CCOCC1)c1ccc(F)cc1	1.1	0.37
O=C1CCc2cc(S(=O)(=O)NC(C(=O)NCc3ccccc3Cl)c3ccccc3)ccc2N1 (configuration not stated)	1	0.098
Cc1nnc2ccc(N3CCN(c4ccccn4)CC3)nn12	1	0.32
COc1ccc(-c2cn3nc(-c4ccc(F)cc4)c(-c4ccc(F)cc4)nc3n2)cc1	1.2	0.22
Cc1oc(-c2ccccc2F)nc1CN1CCC(C(=O)NCC2CCCO2)CC1 (configuration not stated)	0.97	-0.79
Brc1ccc2nc(Oc3ccccc3)nc(-c3ccccc3)c2c1	1.1	1.5
CC(NC(=O)c1cc(=O)[nH]c2ccc(S(=O)(=O)N3CCCCC3)cc12)c1ccccc1 (configuration not stated)	0.97	-0.43
O=C(NCCc1ccccc1)C1CCN(C(=O)c2cnn(-c3ccccc3)c2-n2cccc2)CC1	0.88	-0.28
O=C(NCc1cccnc1)c1cc(=O)[nH]c2ccc(S(=O)(=O)N3CCCCC3)cc12	1	0.63
CCC1Oc2ccc(Cl)cc2N(CC(=O)NC2CC2)C1=O (configuration not stated)	0.97	-0.53

Screens (PubChem BioAssay)
